GIV Gai3 FP: inhibitors of GIV GBA-motif binding to rat Galpha-i3. P08753. Galpha-i3/FITC-GIV peptide fluorescence polarization, 90 min; hits give low values; scaled: aluminum fluoride 0%, vehicle 100%. percent of control (FP), % (no concentration beside the values). 210,000 tested, 0.42% active. AID 1224905;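 active means replicate mean at 85% of control or lower, very high polarization wells dropped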;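 further: wells of about 15 µL received 100 nL stock; the first replicate is given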
Target sequence (P08753 whole entry, looked up): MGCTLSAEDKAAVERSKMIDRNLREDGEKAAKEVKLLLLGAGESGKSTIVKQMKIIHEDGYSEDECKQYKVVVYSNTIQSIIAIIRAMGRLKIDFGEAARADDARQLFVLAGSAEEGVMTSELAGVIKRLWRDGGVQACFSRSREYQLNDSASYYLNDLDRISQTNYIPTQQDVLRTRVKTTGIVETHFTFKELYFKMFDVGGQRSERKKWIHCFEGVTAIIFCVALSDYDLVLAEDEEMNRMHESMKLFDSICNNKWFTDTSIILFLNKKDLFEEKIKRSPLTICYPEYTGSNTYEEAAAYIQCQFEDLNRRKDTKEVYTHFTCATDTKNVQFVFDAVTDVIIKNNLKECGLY
Sa growth inh: S. aureus growth inhibition | S. aureus RN4220 growth, OD600, 20 h, 42 °C; hits give low values | relative growth, % (concentration not given with the values) | 170,000 tested, 0.53% active;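 active means growth at 42 °C up to 50% and 20 or more points under that at 30 °C, or under 10% at both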;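 further: 300 nL library stock went into each well; scaled to the means of positive and negative controls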
HCMV UL50-53 inh: disrupts HCMV UL50-UL53 complex binding; HTRF UL50-UL53 interaction, normalized percent inhibition; inhibition, % (no concentration beside the values); 190,000 tested, 0.15% active; AID 1918969;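 active means both replicates at 50% or more, plus weaker picks with an unusually low signal ratio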;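 further: stock transfer was 100 nL into about 20 µL; 0% = negative control wells and 100% = wells with untagged competitor protein; inactives centre near -12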
Sa growth inh second temp: further read-out of Sa growth inh, marked with its call; relative growth, %; measured here: growth at 30 °C;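 optical density after 20 h as mean of two plates; 100% = untreated growth and lower means inhibition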
* marks the source's active call; other numbers are inactive results; x = not tested or not shown; & = joins results of further samples.

Start of the data: the first 5 entries as a preview:
SMILES	GIV Gai3 FP	Sa growth inh	Sa growth inh second temp	HCMV UL50-53 inh
CCOc1cccc(CNC(=O)c2ccc(N3CCCC3)c(NC(=O)Nc3cccc(Cl)c3)c2)c1	104	x	x	-10
CCc1cc(C(c2ccc(Cl)cc2)N2CCN(CCO)CC2)c(NC(=O)c2ccccc2)s1 (stereo unspecified)	106	105	52	x
NC(=O)CN1C(=O)c2ccccc2C1=O	x	92	89	-27
CN(C(=O)Cc1c[nH]c2ccccc12)C(C(=O)Nc1ccc2c(c1)OCO2)c1ccccc1 (stereo unspecified)	101	99	99	6
CCOC(=O)c1cn[nH]c1S(=O)(=O)Nc1cccc(C)c1	99	x	x	-16

The list itself (from the top)
SMILES	GIV Gai3 FP	Sa growth inh	Sa growth inh second temp	HCMV UL50-53 inh
CCOc1cccc(CNC(=O)c2ccc(N3CCCC3)c(NC(=O)Nc3cccc(Cl)c3)c2)c1	104	x	x	-10
CCc1cc(C(c2ccc(Cl)cc2)N2CCN(CCO)CC2)c(NC(=O)c2ccccc2)s1 (stereo unspecified)	106	105	52	x
NC(=O)CN1C(=O)c2ccccc2C1=O	x	92	89	-27
CN(C(=O)Cc1c[nH]c2ccccc12)C(C(=O)Nc1ccc2c(c1)OCO2)c1ccccc1 (stereo unspecified)	101	99	99	6
CCOC(=O)c1cn[nH]c1S(=O)(=O)Nc1cccc(C)c1	99	x	x	-16
CC(=O)Nc1ccc(NC2SC(=O)NC2=O)cc1 (stereo unspecified)	102	111	92	x
Cc1cc2n(n1)CCC(=O)N2C(C)C(=O)NCc1ccccc1Cl (stereo unspecified)	103	x	x	-5
Cc1cc(=O)[nH]c2c1c(=O)[nH]n2C1CCCCC1	98	89	84	-10&-22
CC(=O)N1CCCSc2ccc(S(=O)(=O)NCC3CCCO3)cc21 (stereo unspecified)	99	x	x	-20
CCCn1c(=O)c2sccc2n2c(SCc3cc(C)ccc3C)nnc12	103	x	x	-43
CC(NC(=O)c1cccs1)C12CC3CC(CC(C3)C1)C2 (stereo unspecified)	x	107	81	-10
CCOc1ccc(-n2c(SCC)nc3c(c2=O)SCC3)cc1	99	86	83	-44
CCOc1ccc(CNS(=O)(=O)c2c(C(=O)N3CCC(C)CC3)c(C)n(C)c2C)cc1OC	101	94	92	x
CN1/C(=C\C(=O)CN2CCc3ccccc3C2)C(C)(C)c2ccccc21	x	104	89	-12
Cc1ccc(C)c(NC(=O)Cn2c(=O)n(Cc3ccco3)c(=O)c3oc4ccccc4c32)c1	100	91	84	x
N#Cc1c(NC(=O)CSc2ncccn2)sc2c1CCCC2	103	89	84	0
CC(C)c1nn2c(=O)cc(COC(=O)c3ccc4c(c3)OCO4)nc2s1	101	92	90	x
CCC(=O)Nc1ccc(C)cc1-c1nc2ccccc2n(CC(=O)c2ccc(C)cc2)c1=O	102	111	92	-10
CC(CN1CCOCC1)OC(=O)C(C)(c1ccccc1)c1ccccc1 (stereo unspecified)	97	99	107	-14
CN(C)S(=O)(=O)c1cccc(-c2nnc3n2CCCCC3)c1	x	97	100	2
CCc1ccc(C(=O)c2cn(Cc3ccc(F)cc3)c3cc(OC)c(OC)cc3c2=O)cc1	100	99	69	-34
O=c1[nH]cc(COCC(F)(F)C(F)F)c(=O)[nH]1	101	109	94	-17
CCOC(=O)C1=NOC2C(=O)N(c3ccc(Cl)cc3)C(=O)C12 (stereo unspecified)	101	104	99	7
COc1ccc(NC(=O)C(Cc2ccccc2)NC(=O)c2ccco2)cc1OC (stereo unspecified)	100	109	101	-5
O=C(N/N=C/c1cccnc1)c1nc2ccccc2c(=O)[nH]1	x	103	94	-37
Cc1cccc(OCc2nc(C)c(C(=O)Nc3nc4c(s3)CCCC4)s2)c1	108	x	x	-24
Cc1ccc(NC(=O)c2nnc(CSCC(=O)NC3CCN(Cc4ccccc4)CC3)s2)cc1	103	x	x	-13
Cc1ccc(NC(=O)c2ccc3c(O)c(S(=O)(=O)c4ccccc4)c(=O)[nH]c3c2)cc1Cl	101	82	91	x
NC(=O)/C(=C\c1ccco1)NC(=O)c1ccco1	100	108	93	-14
O=C1C(=O)N(CCCn2ccnc2)C(c2ccc(Cl)cc2)/C1=C(\O)c1ccc(F)cc1 (stereo unspecified)	x	124	82	-51
O=C(Nc1ccc(-c2nc3ccccc3[nH]2)cc1)c1cc(-c2ccncc2)n[nH]1	105	x	x	-1
CCN(CC)S(=O)(=O)c1ccc(NC2CCN(Cc3ccccc3)CC2)nc1	x	111	91	-4
CC(C)Nc1ncnc2onc(-c3ccc(F)cc3)c12	102	96	80	-29
CN(C)CCNC(=O)CCCN1C(=O)c2cccnc2Oc2ccc(Cl)cc21	109	121	90	x
O=C(Nc1cccc(-c2nc3ccccc3[nH]2)c1)c1c(F)cccc1F	98	91	65	-10
COc1ccc(C2=NN(C(=O)COc3ccccc3C(N)=O)C(c3ccco3)C2)cc1 (stereo unspecified)	x	75	88	-7
C=CCn1c(SCC(=O)N2CCN(CCO)CC2)nc2sc(C)c(C)c2c1=O	99	x	x	-33
Cc1ccc2onc(CNC(=O)NCCCN3CCN(c4ccc(F)cc4)CC3)c2c1	103	x	x	-6
N#Cc1c(NC(=O)NCc2ccco2)sc2c1CCC2	118	99	97	-6
CC(CNC(=O)c1csc2c1CCCC2)c1ccccc1 (stereo unspecified)	101&100	109	87	-25
CCOC(=O)c1c(NC(=O)C2c3ccccc3Oc3ccccc32)sc(C)c1CC	106	98	85	-11
CC(C)CCn1c(SCc2c(F)cccc2Cl)nc2ccsc2c1=O	102	90	88	x
O=C(CSc1nc2ccccc2[nH]1)n1c2ccccc2c2ccccc21	105	93	105	x
COc1ccc(N(CC(=O)Nc2ccc(C)c(C)c2)S(=O)(=O)c2ccc(C)cc2)cc1OC	106	94	90	-55
COc1ccc(CC(=O)NCCSc2c(-c3ccccc3)[nH]c3ccccc23)cc1OC	104	125	87	x
CC1C/C(=C/c2cccn2C)C(=O)/C(=C/c2cccn2C)C1 (stereo unspecified)	-75*	78	64	x
Cc1[nH]nc2c1C1=C(C(=O)CC(C)(C)C1)C(c1ccc(N(C)C)cc1)N2 (stereo unspecified)	100	117	82	35
Cc1onc(-c2ccccc2)c1C(=O)Nc1nnc(N2CCCCCC2)s1	103	114	95	3
Nc1ccc(Sc2ccccc2)nc1	99	96	94	-6
Cc1cccc(-c2nc3c4ccccc4nc(N4CCN(c5cccc(Cl)c5)CC4)n3n2)c1	100	100	84	-10

Carrying on.
SMILES	GIV Gai3 FP	Sa growth inh	Sa growth inh second temp	HCMV UL50-53 inh
CCOC(=O)c1sc(=S)n(-c2ccccc2)c1N	104	x	x	-27
CCOCCCNc1nc(C)nc2onc(C)c12	99	x	x	6
COc1cc(/C=N/NC(=O)c2cc(C)n(-c3ccc(F)cc3)c2C)ccc1OC(=O)c1ccco1	x	99	91	-20
COCCSc1ccccc1C(=O)N1CCOCC1	105	102	88	-10
COc1ccc(C2(C(=O)NCc3ccco3)CCCC2)cc1OC	97	99	92	x
CN(Cc1ccccc1)C(=O)C1CCN(c2nc3cccnc3s2)CC1	101	93	103	-1
CC1CCN(S(C)(=O)=O)CC1	102	85	89	-12
Cc1ccc(C(C)NC(=O)C2CCN(c3ccnc(-c4cccc(C)c4)n3)CC2)cc1 (stereo unspecified)	104	x	x	-22
O=C(CSc1ccccc1)NC1CC1	x	114	81	-28
CS(=O)(=O)c1cccc(S(=O)(=O)NCc2cccnc2)c1	109	96	101	18
Cc1noc(-c2ccc(NC(=O)C3CC(=O)N(c4ccccc4)C3)cc2)n1 (stereo unspecified)	107	x	x	0
Cc1ccc(O)c(-c2cc(C(F)(F)C(F)(F)F)nc(-c3ccccc3)n2)c1	101	78	87	x
O=C(Nc1ncn[nH]1)c1cc(-c2ccccc2)nc2ccccc12	103	x	x	5
COCCN(CCC(=O)N1CCNCC1)C(=O)c1ccc(C)cc1	101	x	x	-25
Cc1sc2c(c1C)CSC(C(=O)Nc1c(C)n(C)n(-c3ccccc3)c1=O)=C2	107	x	x	-25
CNC(=O)NC(=O)CSc1nnc(Nc2ccccc2C)s1	x	93	99	2
Cc1ccc2onc(CNC(=O)N(C)Cc3ccccc3)c2c1	103	107	86	x
Cc1cc(C)n2nc(C(=O)N3CCOCC3)nc2n1	99	102	79	-17
CC1CN(C(=O)N2CCC(C(=O)NCCC3=CCCCC3)CC2)c2cc(Cl)ccc2O1 (stereo unspecified)	101	111	97	-21
O=C(NC1CC1)c1ccc2c(c1)N(Cc1ccc(F)cc1)CCS2	102	98	90	3
Cc1ccc(-n2nnnc2CNC(=O)C(C)(C)C)cc1C	100	86	88	x
CC(C)NC(=O)CCc1nc(-c2nn(-c3ccc(F)cc3)c(=O)n(C)c2=O)no1	108	x	x	-104
Cc1nc(N2CCCC2)ncc1C(=O)NCc1ccc(Cl)cc1	102	105	90	x
CCOC(=O)N1CCC(NS(=O)(=O)c2ccc3[nH]c(=O)ccc3c2)CC1	102	86	86	-1
COc1cc(C(=O)n2nc(N)c3cc4ccc(C)cc4nc32)cc(OC)c1OC	111	110	96	-6
O=C(CN1C(=O)CSc2ccc(C(=O)N3CCCC3)cc21)Nc1ccc2c(c1)OCCO2	107	x	x	-38
O=C(Cn1ccc2cc(S(=O)(=O)N3CCCCC3)ccc21)NCc1ccccc1Cl	100	107	95	x
CNC(=O)c1cc(Cl)ccc1OC	97	83	93	-8
N#CC(C(=O)C12CC3CC(CC(C3)C1)C2)c1nc2ccccc2[nH]1 (stereo unspecified)	x	92	78	-12
O=C(COc1cc(O)c2c(=O)c3ccccc3oc2c1)c1ccccc1	99	x	x	-9

Exported as labelled records: entries from further up
> CCOC(=O)N1CCC(NS(=O)(=O)c2ccc3[nH]c(=O)ccc3c2)CC1
- GIV Gai3 FP = 102
- Sa growth inh = 86
- Sa growth inh second temp = 86
- HCMV UL50-53 inh = -1
> O=C(Cn1ccc2cc(S(=O)(=O)N3CCCCC3)ccc21)NCc1ccccc1Cl
- GIV Gai3 FP = 100
- Sa growth inh = 107
- Sa growth inh second temp = 95
- HCMV UL50-53 inh = x

Next structures follow.
SMILES	GIV Gai3 FP	Sa growth inh	Sa growth inh second temp	HCMV UL50-53 inh
CC(C)(C)OC(=O)N1CCC(c2c(C(=O)N3CCN(C(=O)c4ccco4)CC3)cnn2-c2ccc(Cl)cc2)CC1	105	97	85	x
Cc1ccc(Cn2cccc2C2=NC(Cc3ccccc3)CO2)cc1 (stereo unspecified)	102	89	61	x
CCCNC(=O)c1ccc(NC(=O)N2CCSc3nc(C)cc(C)c32)cc1	102	97	93	-21
Cc1ccc2nc(-c3cccc(NC(=O)c4cccc5c(Cl)cccc45)c3)oc2c1	115	95	102	-3
Cc1nc2nc(C)c(CCC(=O)NC(C)CCc3ccccc3)c(C)n2n1 (stereo unspecified)	99	x	x	-25
C[C@H]1COc2c(C3(N)CC3)c(F)cc3c(=O)c(C(=O)O)cn1c23	100	-0.9*	-0.6*	-32&-74
COCCn1c(C)cc(/C=N/n2c(C)nc3ccccc3c2=O)c1C	x	91	92	-10
O=C(Cc1ccccc1)NCc1cccs1	x	94	92	15
Fc1ccc(-c2onc3ccc(-c4ccn[nH]4)cc23)cc1	104	x	x	-36
CCOc1cccc(C2c3c(oc4ccccc4c3=O)C(=O)N2c2nc(C)c(C(=O)OC)s2)c1 (stereo unspecified)	101	94	91	-19
COc1ccc(-c2cc(C(F)(F)F)nc(SCC(=O)N(C)Cc3ccccc3)n2)cc1	103	76	72	-24
O=C(CS(=O)(=O)c1cccc2nsnc12)N1CCN(c2cccc(C(F)(F)F)c2)CC1	103	98	81	x
Cc1ccc(-n2nnc(C(=O)Nc3ccc(S(N)(=O)=O)cc3)c2C)cc1	100	x	x	-17
COC(=O)c1ccc(C(=O)OC)c(S(=O)(=O)N(C)Cc2ccco2)c1	x	78	91	-14
O=C(COC(=O)CCc1c[nH]c2ccccc12)Nc1cccc2nsnc12	x	80	93	-49
NC(=O)CSc1n[nH]c(CN2c3ccccc3Sc3ccccc32)n1	101	97	74	32
COc1cc(CNC(=O)c2cnc3c(-c4cccc(C)c4)c(C)nn3c2C)cc(OC)c1OC	106	75	87	x
COc1ccc(OC)c(NC(=O)CSc2nc(-c3ccccc3C)nc3cc(=O)[nH]n23)c1	103	56	64	x
Cc1ccccc1CN	x	99	98	-18
COc1ccc(OC)c2sc(NC(=O)c3ccc4ncsc4c3)nc12	104	103	80	-20

2 neighbouring entries from above:
SMILES	GIV Gai3 FP	Sa growth inh	Sa growth inh second temp	HCMV UL50-53 inh
O=C(CS(=O)(=O)c1cccc2nsnc12)N1CCN(c2cccc(C(F)(F)F)c2)CC1	103	98	81	x
Cc1ccc(-n2nnc(C(=O)Nc3ccc(S(N)(=O)=O)cc3)c2C)cc1	100	x	x	-17

Additional entries follow:
SMILES	GIV Gai3 FP	Sa growth inh	Sa growth inh second temp	HCMV UL50-53 inh
CCOc1ccc(NC(=O)NC(C)c2c(-n3cccc3)sc3c2CCN(CC)C3)cc1 (stereo unspecified)	108	111	93	x
CC1CN(C(=O)CC(c2ccccc2)c2ccccc2)CC(C)O1 (stereo unspecified)	105	117	100	15
Cc1ccc(C(=O)/C=C/Sc2nccc(C)n2)cc1	97	75	91	-15
Cc1ccc(-c2nc(-c3cccc(C)c3)no2)cc1	102	80	88	-16
Cc1ccccc1NC1SC(=O)N(Cc2ccccc2)C1=O (stereo unspecified)	104	88	99	x
CCOc1ccccc1Nc1sc(C(=O)c2ccccc2)c(N)c1C(=O)NCCc1ccccc1	111	111	108	x
COc1ccc(C2C3=C(CCCC3=O)Nc3nc4ccccc4n32)cc1 (stereo unspecified)	99	120	87	x
